Screening data deposited in PubChem by National Center for Advancing Translational Sciences (NCATS).
RE007 growth inh = less growth of the S. pombe RE007 Vpr strain. hit rate 0.21% among 360,000. AID 651644. S. pombe RE007 Vpr strain, BacTiter-Glo ATP luminescence, 24 h; control for the full effect not named in the record. Potency, µM (top dose mostly 92.2 µM), without a hit: at the top dose activity change, negative = less growth; active = well fitted falling curve with a large enough effect; inconclusive = small, poorly fitted or top-dose-only effect; inactive = no such curve, though single readings can be large or run the other way;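 note: % is set by controls: 0 for no effect and ±100 for the full control effect; nearly all actives have a fitted effect of over 50% in size; the assay follows cell death caused by Vpr and the record does not say whether a fall means rescue or toxicity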
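Fission yeast RE007 carrying one integrated HIV-1 vpr copy, seeded at OD 0.01 in PMG+AL medium with 23 nL pinned compound. Grown 24 h at 30 degrees; viability read by BacTiter-Glo luminescence after 5 min.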
SARS PLpro yeast = blocks SARS-CoV papain-like protease in a yeast assay | S. cerevisiae expressing SARS-CoV PLpro, growth rescue; control for the full effect not named in the record | Potency, µM (doses to about 32.9 µM), for the others: at the highest dose activity, positive = growth rescue | hit rate 0.19% among 330,000 | AID 485353; active means well fitted rising curve with a large enough effect; inconclusive means small, poorly fitted or top-dose-only effect; inactive means no such curve, though single readings can be large or run the other way; note: 0% is about no effect; nearly all actives have a fitted effect of over 55% in size; growth read by luminescence after 48 h
StopGo reporter = lowers the luciferase signal of an FMDV 2A StopGo reporter. human cells with a luciferase reporter of 2A StopGo recoding; control for the full effect not named in the record. Potency, µM (titrated, usually from 57.9 µM), for the others: at the highest dose signal change, negative = less light. hit rate 1.2% among 410,000. AID 1159524; active = well fitted falling curve with a large enough effect; inconclusive = small, poorly fitted or top-dose-only effect; inactive = no such curve, though single readings can be large or run the other way; tested in HEK293T cells; note: % is set by controls: 0 for no effect and ±100 for the full control effect; nearly all actives have a fitted effect of over 45% in size; luciferase light after 4 h
The depositor's hits bear a star; ? = inconclusive; [ ] = remark or other dose. Potency is the fitted concentration of half-maximal effect. Only part of the results is shown; the hit share may differ from the screen's.

Start of the listing, in advance:
SMILES	RE007 growth inh	SARS PLpro yeast	StopGo reporter
COc1ccc(Cl)cc1NC(=O)CN(C)C(=O)CCNC(=O)c1ccccc1OC	-3%	5%	-2%
COCCNC(=O)NC12CC3CC(CC(C3)C1)C2	0%	0%	-4%

Results, previewed entries included:
SMILES	RE007 growth inh	SARS PLpro yeast	StopGo reporter
COc1ccc(Cl)cc1NC(=O)CN(C)C(=O)CCNC(=O)c1ccccc1OC	-3%	5%	-2%
COCCNC(=O)NC12CC3CC(CC(C3)C1)C2	0%	0%	-4%
Cc1cc(C2=CC(=O)C[C@H](c3ccc4c(c3)OCO4)C2)ccc1F	4%	9%	-10%
CCc1cc(=O)oc2cc(C)cc(OCC(=O)C(C)(C)C)c12	11%	-5%	?
N#Cc1ccccc1Sc1ccccc1C(=O)NCC(c1ccco1)N1CCCCC1 (stereo not drawn)	2%	-2%	-8%
COc1ccc(CCN2CC(C(=O)OC(C)C(=O)Nc3cccc(Cl)c3)CC2=O)cc1OC (stereo not drawn)	-11%	-6%	-11%
O=C(Nc1ccc2c(c1)OCO2)C1CC1(Cl)Cl (stereo not drawn)	-12%	2%	33%[activator]
Cc1ccc(S(=O)(=O)N2CCOCC2)cc1NC(=O)COC(=O)/C=C/c1ccco1	5%	0%	-2%
CCOc1ccc(NC(=O)CN(C)C(=O)CC2CCCC2)cc1OCC	29%	-1%	-19%
O=C1C=C(c2ccc3ncccc3c2)C[C@@H](c2ccc(Cl)cc2)C1	11%	2%	-23%
COc1ccc(S(=O)(=O)N2CCOCC2)cc1NC(=O)CN1C(=O)CN(C)C1=O	1%	-4%	-14%
Cc1nn(Cc2ccccc2)c(Cl)c1/C=C/C(=O)OC(C)C(=O)N1CCCC1 (stereo not drawn)	15%	1%	-18%
COc1ccc(CC(=O)OCC(=O)N2CCc3ccccc32)cc1OC	-11%	2%	11%
CCOC(=O)c1ccc(NC(=O)CCCN2C(=O)NC3(CCCC3)C2=O)cc1	-5%	0%	1%
COc1ccc(NC(=O)c2nc[nH]c2C(=O)NCc2ccccc2)cc1	-24%	1%	-24%

Single records, from the list above. Order of screens: RE007 growth inh	SARS PLpro yeast	StopGo reporter
`N#Cc1ccccc1Sc1ccccc1C(=O)NCC(c1ccco1)N1CCCCC1` (stereo not drawn) is entered as 2%	-2%	-8%
`CCOC(=O)c1ccc(NC(=O)CCCN2C(=O)NC3(CCCC3)C2=O)cc1` is entered as -5%	0%	1%
`COc1ccc(CCN2CC(C(=O)OC(C)C(=O)Nc3cccc(Cl)c3)CC2=O)cc1OC` (stereo not drawn) is entered as -11%	-6%	-11%

Other results:
SMILES	RE007 growth inh	SARS PLpro yeast	StopGo reporter
Cc1ccc(NC(=O)c2nc[nH]c2C(=O)N[C@H](C)c2ccccc2)cc1	-10%	-8%	-23%
CCC[C@@H](CN1CCC[C@H]1CN1C(N)=NC[C@@H]1Cc1ccccc1)N1C[C@@H](Cc2ccccc2)N(CCc2ccc(Cl)c(Cl)c2)C1=N	18%	7%	-18%
COC(=O)C1=C(c2ccc(F)cc2OCc2ccccc2)C[C@@H]2CC[C@H]1N2C(=O)NCCCOC(C)C	3%	-2%	-24%
COC(=O)CC1NCCc2cc(OC)c(OC)cc21 (stereo not drawn)	9%	1%	-16%
O=[N+]([O-])c1cc([N+](=O)[O-])c(Oc2cc(Cl)cc(Cl)c2)cc1NN1CCCCC1	0%	10%	-19%
COc1cccc(OC)c1C(=O)OCc1c(-c2ccccc2)ncc2ccccc12	-6%	0%	-10%
Cc1ncc([N+](=O)[O-])n1CC(=O)NCCc1ccccc1	1%	2%	-23%
COCCCNC(=O)Cn1ccc(NC(=O)OCc2ccccc2)nc1=O	-16%	4%	-8%
COc1ccccc1C(=O)NCCC(=O)OCC(=O)Nc1ccc(S(N)(=O)=O)cc1	-6%	0%	-5%
CC(C)(C)NC(=O)NC(=O)CSc1cccc(C(F)(F)F)c1	0%	3%	-16%
O=C(NCc1ccc(F)cc1)C1CCN(S(=O)(=O)N2CCOCC2)CC1	4%	-2%	-20%
CN(C)c1ccc(/C=C2\Oc3ccc(C#Cc4cccc(N)c4)cc3C2=O)cc1	4%	-7%	24%
COc1ccc(-c2ccc3c(c2)S(=O)(=O)c2cccc(C(=O)NCCOc4ccccc4)c2C3=O)cc1OC	1%	2%	?
COc1ccc(-c2nc(NC(=O)CCNC(=O)c3ccco3)sc2C)cc1	-1%	2%	?
COc1cc(NC(=O)CSCC(=O)N(C)C2CCCCC2)cc(OC)c1	-2%	-3%	-18%
C[C@H](CO)N1C[C@H](C)[C@@H](CN(C)C(=O)Nc2ccccc2)Oc2c(NC(=O)C3CCCCC3)cccc2C1=O	7%	-2%	66%[activator]
COc1ccc(CC(=O)NCc2ccc3c(c2)cc(C)n3C)cc1OC	19%	0%	?
O=C(CNC(=O)C1CC(=O)N(c2cccc3ccccc23)C1)Nc1ccccc1Br (stereo not drawn)	1%	-4%	12%
Clc1ccc(-c2cnn3c(-c4ccncc4)ccnc23)cc1	-9%	-5%	29%
COc1cccc(/C=C/C(=O)OCC(=O)c2ccc(C)c(C)c2)c1OC	2%	-3%	-3%
Cc1noc(C)c1COc1ccc(C(=O)N(C)CCOc2ccccc2)cc1	7%	0%	-27%
NC(=O)CSc1cn(Cc2ccc(F)cc2)c2ccccc12	-2%	3%	-16%
O=C(CN1C(=O)NC(c2ccccc2)(c2ccccc2)C1=O)NC1CCCCC1	-2%	6%[6.58 µM]	-15%
COCCN(C(=O)CCN1C(=O)C2CC=CCC2C1=O)c1c(N)n(CC(C)C)c(=O)[nH]c1=O (stereo not drawn)	3%	1%	-23%
COc1ccc(C2=NOC(Cn3nc(C(=O)NCc4cccc(C(F)(F)F)c4)cc3-c3ccccc3)C2)cc1 (stereo not drawn)	13%	-2%	-22%
CN1C(=O)/C(=C/c2cccc(Cl)c2)Sc2ccc(C(=O)NCc3cccnc3)cc21	6%	-10%	0%
COC(=O)C1CCN(C(=O)COC(=O)CNC(=O)c2ccc(Cl)cc2Cl)CC1	14%	-3%	-18%
O=C(COc1ccccc1[N+](=O)[O-])NCC1(N2CCCCC2)CCCCC1	-18%	-16%	-19%
C#CCOCCOCCOCCNc1nc(N2CCN(C(=O)C([C@@H](C)O)n3cc([C@@H](N)CCCCN)nn3)CC2)nc(N2CCN(C(=O)[C@H](CCC(=O)O)n3cc([C@@H](N)CCCCN)nn3)CC2)n1 (stereo partly drawn)	6%	-2%	2%
CC(OC(=O)c1ccc(Cl)cc1)C(=O)NCC1CCCCC1 (stereo not drawn)	-4%	-9%	0%

Exported with values under each structure: three of the compounds above.
Under each structure – RE007 growth inh	SARS PLpro yeast	StopGo reporter
COc1ccc(CC(=O)NCc2ccc3c(c2)cc(C)n3C)cc1OC
    19%	0%	?
O=C(CNC(=O)C1CC(=O)N(c2cccc3ccccc23)C1)Nc1ccccc1Br (stereo not drawn)
    1%	-4%	12%
Clc1ccc(-c2cnn3c(-c4ccncc4)ccnc23)cc1
    -9%	-5%	29%

The list continues.
SMILES	RE007 growth inh	SARS PLpro yeast	StopGo reporter
O=C(CSc1nnc(Nc2ccccc2F)s1)NC1CCS(=O)(=O)C1 (stereo not drawn)	10%	0%	15%
COc1ccc(C)cc1-n1nnnc1SC(C)C(=O)NC1CCCC1 (stereo not drawn)	-6%	-1%	11%
CC(C)N(C(=O)[C@H]1C[C@H](CC(=O)NCc2cccc(C(F)(F)F)c2)C(=O)N2CCc3c([nH]c4cc(-c5ccco5)ccc34)[C@]12C)C(C)C	5%	5%	?
COC(=O)[C@@H]1CC[C@@](C)(c2ccc(OC)cc2)C1(C)C	0%	-17%	-13%
O=C(OCCc1cc2ccccc2c(=O)o1)c1ccco1	-11%	-2%	0%
COC(=O)C1=C(c2ccc(F)cc2OCc2ccccc2)C[C@@H]2CC[C@H]1N2C(=O)N1CCC(O)(c2ccc(Cl)cc2)CC1	-1%	0%	?
CC(=O)Nc1ccc(C(=O)OCC(=O)N2CCC(Cc3ccccc3)CC2)cc1	-9%	0%	-12%
O=C(COC(=O)c1ccc(O)cc1)NC1CCCCCC1	-5%	-2%	10%
CCC/C(C#Cc1ccc(N(C)C)cc1)=C1/c2ccccc2C(=O)N1c1ccccc1	3%	11%	4%
CN(C(=O)c1cc2ccccc2o1)c1c(N)n(Cc2ccccc2)c(=O)[nH]c1=O	13%	6%	-16%
COC(=O)CSc1nnc(CNC(=O)c2ccc(S(=O)(=O)N3CCOCC3)cc2)n1C	1%	-1%	-5%
CN=C1N(C)C[C@@H]2[C@@H]3C(=O)N(C)C(=O)[C@@H]3[C@](Cc3ccccc3)(C(=O)OC)N12	-2%	15%	-11%
O=c1cc(-c2ccc(O)cc2)oc2c1ccc1ccccc12	3%	5%	-19%
CC(=O)N1CCN(C(=O)c2ccccc2NS(=O)(=O)c2ccc(F)cc2)CC1	-2%	2%	-8%
CN(c1ccc(F)cc1)S(=O)(=O)c1ccc(Cl)c(C(=O)NCc2ccco2)c1	33%	1%	-6%
O=C1C=C(c2ccc3ccccc3c2)C[C@@H](c2ccc(F)cc2)C1	-4%	-22%	0%
CN(C)CCSc1nc2cc(S(=O)(=O)N3CCCCC3)ccc2o1	8%	3%	-1%
NS(=O)(=O)c1ccc(CNC(=O)Cn2nc(C(F)F)cc2C(F)F)cc1	-9%	4%	2%
Oc1ccccc1-[n+]1c(-c2ccccc2)cc(-c2ccccc2)c(O)c1-c1ccccc1	7%	6%	11%
CCN(CC)C(=O)[C@H]1CC(CC(=O)NCCC2=CCCCC2)C(=O)N2CCc3c([nH]c4ccccc34)[C@]12C (stereo partly drawn)	0%	-1%	-16%
CC1Cc2ccccc2N1S(=O)(=O)c1cccc(C(=O)N2Cc3ccccc3CC2C(N)=O)c1 (stereo not drawn)	-18%	17%	-6%
C[C@@H]1O[C@@H](O[C@@H]2[C@@H](O)[C@H](OCCc3ccc(O)c(O)c3)O[C@H](CO)[C@H]2OC(=O)/C=C/c2ccc(O)c(O)c2)[C@H](O)[C@H](O)[C@H]1O	2%	-2%	-11%
CCN1CCCC(OC(=O)c2cc(-c3ccccc3Cl)nc3ccccc23)C1 (stereo not drawn)	-1%	0%	47%[activator]
O=C(NC1CCCc2ccccc21)c1cc(S(=O)(=O)N2CCOCC2)ccc1F (stereo not drawn)	-8%	1%	48%[activator]
C=C[C@@H]1C2=CCOC(=O)C2=CO[C@H]1O[C@@H]1O[C@H](CO)[C@@H](O)[C@H](O)[C@H]1O	-21%	-5%	-16%
CC1CCC2(CC1)NC(=O)N(CC(=O)Nc1ccc3c(c1)OCCCO3)C2=O (stereo not drawn)	6%	6%	-23%
Cc1ccc(S(=O)(=O)N2CCCCC2)cc1NC(=O)c1ccc(Br)o1	0%	-2%	-15%
Cc1noc(C)c1S(=O)(=O)N(C)C[C@H]1Oc2ccc(NC(=O)C3CCCCC3)cc2C(=O)N([C@H](C)CO)C[C@@H]1C	-14%	2%	-11%
Cc1ccc(CN2CC(C(=O)NC3CCCC(C)C3C)CC2=O)cc1 (stereo not drawn)	-15%	2%	-11%
CC(C)CCN(C(=O)C1CCCC1)c1c(N)n(Cc2ccccc2)c(=O)[nH]c1=O	0%	1%	-20%
Cc1noc(C)c1S(=O)(=O)N(C)C[C@H]1Oc2ccc(NC(=O)Cc3ccccc3)cc2C(=O)N([C@H](C)CO)C[C@@H]1C	-13%	0%	-14%
COc1cc(OC)cc(-c2c(C#Cc3ccsc3)c3cc(-c4cccc5[nH]ccc45)ccc3n2C)c1	0%	2%	0%
COc1cc2c(=O)n(CCC(=O)NCC3CCCO3)c(=O)n(CC(=O)c3ccc(Cl)cc3)c2cc1OC (stereo not drawn)	-2%	1%	-11%
Cc1cc(Br)ccc1SCC(=O)OCC(=O)Nc1ccc2[nH]c(=O)[nH]c2c1	4%	-4%	-5%
CSCc1cccc(C(=O)OC(C)C(=O)Nc2c(C)n(C)n(-c3ccccc3)c2=O)c1 (stereo not drawn)	-10%	12%	13%
Cc1ccc2c(c1)C(=O)C(=O)N2Cc1ccc(Br)cc1	-22%	-7%	0%
COc1ccccc1C(=O)NC(CCSC)C(=O)Nc1ccc(C)c(S(=O)(=O)N2CCOCC2)c1 (stereo not drawn)	0%	4%	-12%
O=C(N/N=C/c1cc([N+](=O)[O-])ccc1N1CCCCCC1)c1ccccn1	?	-6%	-12%
O=C(COC(=O)CCS(=O)(=O)c1ccccc1)Nc1ccc(N2CCCCC2)cc1	0%	5%	13%
CN(C(=O)CSc1ccc(S(=O)(=O)N2CCCCC2)cn1)c1ccccc1	8%	-4%	-8%
COc1ccc(NC(=O)Cn2c(=O)n(-c3ccccc3)c(=O)c3sccc32)c(OC)c1	1%	0%	-17%
CCn1cc(/C=C(\NC(=O)c2ccc(OC)c(OC)c2)C(=O)NCCCO)c2ccccc21	-2%	1%	-2%
COc1ccc2cc(C=O)n(C)c2c1	-1%	-2%	7%
CCOc1ccccc1NC(=O)C(c1ccccc1)N1CCN(CC(=O)N2CCCC2)CC1 (stereo not drawn)	-8%	2%	-8%
